Source: PubChem
KCNQ2 block – KCNQ2 potassium channel inhibitors, primary screen, cell-based, CHO-K1, FluxOR thallium flux, B-score (AID 2156); O88943; 20 min; stronger effect = lower value; only compounds with negative scores are shown here; some inactives read as strong as hits; B-score at 10 µM; 310,000 tested, 1.1% active;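 active = fluorescence ratio B-score at most minus 3 library SDs, with starting brightness B-score within 2 library SDs, cut at about -5.5 in these data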
Target sequence (O88943 whole entry, looked up): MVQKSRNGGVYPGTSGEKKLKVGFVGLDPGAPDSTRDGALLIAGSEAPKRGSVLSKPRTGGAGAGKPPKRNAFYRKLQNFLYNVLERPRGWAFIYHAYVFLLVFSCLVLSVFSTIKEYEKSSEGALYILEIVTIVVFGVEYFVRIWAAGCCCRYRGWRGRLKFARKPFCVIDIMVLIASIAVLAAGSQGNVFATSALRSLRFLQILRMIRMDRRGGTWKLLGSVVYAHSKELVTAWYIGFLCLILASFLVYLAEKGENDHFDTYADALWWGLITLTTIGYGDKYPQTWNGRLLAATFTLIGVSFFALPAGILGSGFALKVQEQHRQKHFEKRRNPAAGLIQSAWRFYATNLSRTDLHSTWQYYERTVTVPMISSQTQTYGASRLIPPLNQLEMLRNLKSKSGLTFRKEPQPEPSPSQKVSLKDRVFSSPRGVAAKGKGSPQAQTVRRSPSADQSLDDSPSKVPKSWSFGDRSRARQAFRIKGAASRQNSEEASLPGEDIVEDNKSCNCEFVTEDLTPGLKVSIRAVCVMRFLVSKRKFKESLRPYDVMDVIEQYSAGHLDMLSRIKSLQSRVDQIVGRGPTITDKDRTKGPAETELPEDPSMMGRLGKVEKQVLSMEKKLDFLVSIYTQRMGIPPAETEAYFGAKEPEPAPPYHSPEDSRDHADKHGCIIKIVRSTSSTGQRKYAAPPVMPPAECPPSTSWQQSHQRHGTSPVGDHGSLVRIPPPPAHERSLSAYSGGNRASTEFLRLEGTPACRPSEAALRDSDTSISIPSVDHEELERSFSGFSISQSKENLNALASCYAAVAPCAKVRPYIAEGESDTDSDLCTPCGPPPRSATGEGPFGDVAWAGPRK
KCNQ2 block baseline – recorded beside KCNQ2 block, whose call it bears; B-score; measured here: initial fluorescence intensity artifact check;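 brightness before thallium and not channel activity; 0 = typical well and far values either way flag optical interference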
* = called active by the depositor; i = inactive. An excerpt; rates above refer to the full screens.

A first look, 2 compounds:
Every second line gives: KCNQ2 block | KCNQ2 block baseline
1	COc1ccc(S(=O)(=O)N2CCN(Cc3cccc([N+](=O)[O-])c3)CC2)cc1
    i | -0.9
2	CN1C(=O)CC(N2CCN(c3ccccn3)CC2)C1=O (configuration not stated)
    i | -1.1

Results, repeating the preview:
Every second line gives: KCNQ2 block | KCNQ2 block baseline
1	COc1ccc(S(=O)(=O)N2CCN(Cc3cccc([N+](=O)[O-])c3)CC2)cc1
    i | -0.9
2	CN1C(=O)CC(N2CCN(c3ccccn3)CC2)C1=O (configuration not stated)
    i | -1.1
3	Fc1ccccc1/C=N/N1CCN(Cc2ccccc2Cl)CC1
    i | -1.2
4	Cn1ccnc1SCC(=O)c1ccc(Br)cc1
    i | -0.07
5	O=C(Cc1ccc(-n2cccc2)cc1)N1CCN(c2ccccc2F)CC1
    i | 0.62
6	Cc1c(C(=O)NCCC2=CCCCC2)sc2ncnc(N3CCCCC3C)c12 (configuration not stated)
    i | -0.63
7	CCOC(=O)c1c(-c2cccs2)csc1NC(=O)COC(=O)c1c(C)noc1C
    -10* | -0.03*
8	Cc1cc(C(=O)NCc2ccco2)c2cc(F)ccc2n1
    i | 1.1
9	Fc1c(CSC(=S)N2CCOCC2)cccc1CSC(=S)N1CCOCC1
    i | -0.45
10	CN(C)CCN(C(=O)CCS(=O)(=O)c1ccccc1)c1nc2c(F)cccc2s1
    i | 1.3
11	Cc1cccc(CN2CCC(CNC(=O)Nc3ccc(F)c(Cl)c3)CC2)c1
    i | 1.7
12	O=C(N/N=C/c1cn(-c2ccccc2)nc1-c1ccc(F)cc1)c1ccc(Br)o1
    i | 1
13	O=C(COC(=O)/C=C/c1ccccc1Cl)NC1CCCCCC1
    i | -0.57
14	COc1ccc(OCCCC(=O)Nc2ccc(N3CCCCC3)cc2)cc1
    i | 1.2
15	O=C(Nc1cc(F)cc(F)c1)c1sc(Cl)nc1-c1ccccc1
    i | -0.92
16	O=C(Nc1ccccc1C(=O)Nc1ccccn1)c1ccc([N+](=O)[O-])cc1
    i | 0.93
17	CCOC(=O)C1CCCN(C(=O)c2cc(Nc3ccc(OC)cc3)nc3ccccc23)C1 (configuration not stated)
    i | -1.1
18	COc1cc(Cl)c(S(=O)(=O)N2CC(C)OC(C)C2)cc1Cl (configuration not stated)
    i | 0.96
19	O=C1CC2(CCN(C(=O)c3ccc(Cl)cc3)CC2)Oc2ccccc21
    i | -0.93
20	COc1cc(CC(=O)OCC(=O)NCC(C)C)cc(OC)c1OC
    i | 0.05
21	Cc1ccc(NC2=NCC(=O)N2C2CCCC2)cc1C
    i | -0.94
22	CC(C)c1nc2scc(-c3ccc(Cl)cc3)c2c(=O)n1N
    i | 0.05
23	CCCCC1(CC)C(=O)NC(=O)NC1=Nc1ccc(OC)cc1 (configuration not stated)
    i | 1.5
24	COc1ccc(C(CC(=O)O)NC(=O)COc2ccccc2)cc1OC (configuration not stated)
    i | 1.4
25	O=C(CNS(=O)(=O)c1ccc(F)cc1)N1CCCCCC1
    i | 1
26	CNC(=S)N1N=C(c2ccc(OC)cc2)CC1c1ccc(Cl)cc1Cl (configuration not stated)
    i | -0.92
27	NC(=O)c1ccc(N=Nc2c(-c3ccccc3)[nH]n(-c3ccccc3)c2=O)cc1
    i | 2.1
28	CSc1nnc(C)c(/C=C/Nc2ccc(Cl)cc2)n1
    i | 1.3
29	c1ccc(SCc2cn3cccnc3n2)nc1
    i | 0.4
30	O=S(=O)(c1ccc(F)cc1)c1snnc1-c1ccccc1
    i | 0.04
31	Cc1nn(C)cc1S(=O)(=O)N1CCCCC1C (configuration not stated)
    i | -0.14
32	O=S(=O)(Nc1cccnc1)c1cc(Cl)ccc1Cl
    i | 1.1
33	CCOc1ccc(CC(=O)NCCc2cnc[nH]2)cc1
    i | -1.4
34	Cc1cc(=O)oc(C)c1C(=O)NCCN(C)Cc1ccccc1
    i | 0.91
35	O=[N+]([O-])c1ccc2c(c1)C(N1CCOCC1)/C(=C/COc1ccc(Cl)cc1Cl)O2 (configuration not stated)
    i | 1.4
36	Cc1cc(C)c(C(=O)/C=C/C=C/c2ccccc2)c(=O)[nH]1
    i | 0.1
37	Cc1cc(NC(=O)CSc2nc3ccccc3cc2C#N)no1
    i | 0.91
38	COC(=O)[C@@H](NC(=O)CCc1nnc(-c2ccsc2)o1)C(C)C
    i | 0.35
39	COC(=O)C(C)NC(=O)CNS(=O)(=O)c1ccc(F)cc1 (configuration not stated)
    i | -0.02
40	O=C(C1CC(=O)N(C2CCCCC2)C1)N1CCc2ccccc21 (configuration not stated)
    i | -0.05
41	Cc1cc(=O)oc(C)c1C(=O)N1CCN(C(c2ccccc2)c2ccccc2)CC1
    i | -0.24
42	COc1ccc(C(=O)O)cc1Nc1cc(C)nc2ncnn12
    i | 1
43	COc1ccccc1N1CCN(Cc2nc(N)nc(Nc3ccc(C)cc3)n2)CC1
    i | 0.75
44	CN(CCCC(=O)O)S(=O)(=O)c1ccc2c(c1)C(=O)c1cc(S(=O)(=O)N(C)CCCC(=O)O)ccc1-2
    i | 0.11
45	Cc1nn2cc(-c3cccc(Cl)c3)cnc2c1Br
    i | -0.01
46	COc1cccc(C(=O)N2CCC(n3nccc3NC(=O)C3CCOC3)CC2)c1 (configuration not stated)
    i | -0.87
47	C/C(=C\C(=O)c1sccc1Cl)N(C)C
    i | 0.02
48	COc1ccc(C(=O)CC(=O)C(=O)Nc2ccc([N+](=O)[O-])cc2C)cc1
    i | 1.7
49	C=CCn1c(SCC(=O)NC(C)(C)C)nnc1-c1ccccc1O
    i | -0.21
50	COC(=O)c1[nH]c2cc(OC)ccc2c1NC(=O)c1nonc1C
    i | -0.83
51	Cc1cc(C)nc(SCC(=O)N/N=C/C=C/c2ccccc2)n1
    i | 1.5
52	COC(=O)c1ccccc1NC(=O)c1ccc2c(c1)OCCO2
    i | 1.3
53	COc1cccc(C2=NN(C(=O)c3ccco3)C(c3ccco3)C2)c1 (configuration not stated)
    i | 3.1
54	Cc1cccc(/C(N)=N/OC(=O)N2CCOCC2)c1
    i | -0.76
55	CCCNC(=O)c1cn(CC)c2cc(N3CCN(C)CC3)c(F)cc2c1=O
    i | -1.5
56	NC(=O)CSc1ccc(F)cc1
    i | -0.67
57	COc1ccc(-c2cc(C(=O)Nc3ccc(C(N)=O)cc3)c3ccccc3n2)cc1
    i | 0.72
58	CCCN(C(=O)COC(=O)C12CCC(=O)N1c1ccccc1S2)c1c(N)n(Cc2ccccc2)c(=O)[nH]c1=O (configuration not stated)
    i | -0.48
59	COc1ccccc1N1CCN(C(=O)c2ccc3c(c2)NC(=O)C(CSCc2ccccc2C)N3)CC1 (configuration not stated)
    i | -1.4
60	Cc1ccc(S(=O)(=O)N2CCC(=O)N(CCOCc3ccc(F)cc3)CC2)cc1
    i | 0.18

Further records:
Every second line gives: KCNQ2 block | KCNQ2 block baseline
61	Cc1ccc(/C=C2/C(=O)c3ccc(C(=O)O)cc3C2=O)o1
    i | -0.52
62	COc1cccc(N2CCN(c3ccc4nnc(CCC(=O)Nc5cccc(C(C)=O)c5)n4n3)CC2)c1
    i | 0.58
63	COc1ccc(NCc2ccc([N+](=O)[O-])s2)cc1
    i | 0.74
64	CC/C(=N\NC(N)=O)c1ccc(OC)c(OC)c1
    i | -0.82
65	O=C(CN1C(=O)NC2(CCCC2)C1=O)OCCOc1ccc(Cl)cc1Cl
    i | 1.7
66	O=C(Nc1ccccc1N1CCN(C(=O)c2ccccc2)CC1)c1ccc(Br)o1
    i | -0.61
67	CC(=O)c1cccc(N2C(=NC(=O)CCc3ccccc3)SC3CS(=O)(=O)CC32)c1 (configuration not stated)
    i | -0.67
68	COc1cc(NC(=S)NCCCO)c(OC)cc1Cl
    i | 0.82
69	CCN1C(=O)CSC1=Nc1ccc(OC)cc1
    i | 0.04
70	O=C(CCCCn1c(=O)[nH]c2ccccc2c1=O)NCc1ccc2c(c1)OCO2
    i | -0.91
71	Cc1ccc(S(=O)(=O)Nc2nc3ccccc3nc2NCc2ccco2)cc1C
    i | -0.42
72	CC(=O)Nc1ccc(S(=O)(=O)NCC2CCC(C(=O)NCCCN(C)Cc3ccccc3)CC2)cc1 (configuration not stated)
    i | -0.2
73	COc1ccc(CN2CC(=O)N(c3ccccc3C)C2=S)cc1OC
    i | -0.46
74	CC1CC(C)CN(C/C=C/c2ccccc2[N+](=O)[O-])C1 (configuration not stated)
    i | 0.98
75	O=C(COc1ccc(-c2ccccc2)cc1)N1CCN(S(=O)(=O)Cc2ccccc2)CC1
    i | 0.09
76	COCCN1C(=O)N(c2cccc(C)c2)C(=O)C1CC(=O)Nc1cc(OC)cc(OC)c1 (configuration not stated)
    i | -0.73
77	CN(CCCC(=O)NCc1ccc2c(c1)OCO2)S(=O)(=O)c1ccc([N+](=O)[O-])cc1
    i | 0.42
78	CCOC(=O)/C=C/c1ccc2c(c1)S(=O)(=O)N(c1cccc(OC)c1)[C@H]2CC(=O)OCC
    i | -1.7
79	Cn1c(NC(=O)c2ccccc2F)c(-c2cccs2)c(=O)c2ccccc21
    i | -0.88
80	COc1ccc2c(c1)oc(=O)c1ccccc12
    i | -0.76
81	COC(=O)c1c(NC(=O)COC(=O)c2ccccc2O)sc2c1CCCCC2
    i | 2
82	O=C(CONS(=O)(=O)c1ccc(Cl)cc1)NCCNc1ncc(C(F)(F)F)cc1Cl
    i | -1.9
83	COc1ccc(S(=O)(=O)N2CCCCC2)cc1NC(=S)Nc1ccccc1
    i | 0.58
84	Cc1ccc(NC(=O)COc2ncnc3ccccc23)cc1S(=O)(=O)N1CCOCC1
    i | 1.3
85	CCCn1nnc(NC(=O)c2ccc([N+](=O)[O-])cc2Cl)n1
    i | -0.02
86	Cc1ccc(S(=O)(=O)N2CCC(C(=O)N[C@@H](C)C(=O)NC3CCS(=O)(=O)C3)CC2)cc1 (some centres not stated)
    i | 0.97
87	Cc1onc(-c2ccccc2Cl)c1C(=O)N[C@@H](C)c1ccccc1
    i | 0.9
88	CC1(C)CC(=O)C(C=NCCN2CCN(CCc3ccccc3)CC2)=C(O)C1
    i | -2.9
89	CSc1ncccc1C(=O)Nc1ccc(OC(F)(F)F)cc1
    i | -0.03
90	CCOC(=O)c1[nH]c(C)c(/C(O)=C2\C(=O)C(=O)N(CCCN(CC)CC)C2c2cccnc2)c1C (configuration not stated)
    i | 0.91
91	CC(=O)c1cccc(N(C(=O)c2ccco2)C(C(=O)NC2CCCCC2)c2ccc(C)o2)c1 (configuration not stated)
    i | -0.97
92	COc1ccc(N=C2C(=Nc3ccc(OC)cc3)N(c3ccc(OC)cc3)C(=S)N2c2ccccc2)cc1
    i | -0.5
93	CCCOc1cccc(-c2nc3ccccc3c(=O)o2)c1
    i | 2.6
94	O=C(c1ccc(Cl)c(Cl)c1)N(Cc1ccco1)c1ccc(O)cc1
    -6.4* | -2.7*
95	Cn1c2c(c(=O)n(C)c1=O)C(c1cccc(F)c1)C(C#N)=C(N)O2 (configuration not stated)
    i | 1.5
96	O=C(/C=N/O)NCc1ccncc1
    i | 1.2
97	Clc1ccc(-c2nnc(CCc3ccccc3)o2)c(Cl)c1
    i | -0.82
98	O=C(NCCCn1ccnc1)C(=O)NCC1OCCN1S(=O)(=O)c1ccccc1 (configuration not stated)
    i | -0.46
99	CCOC(=O)c1c(C)[nH]c(N=Nc2ccccc2Cl)c1C
    i | -0.93
100	CCCC(=O)Nc1ccc(NC(=O)c2cc3ccccc3o2)c(OC)c1
    i | 5.3
101	O=C(CCS(=O)(=O)c1cccc2nonc12)N1CC(=O)N(CCc2ccccc2)C(=O)C1
    i | 2.2
102	CCCOC(=O)c1[nH]c2c(c1C)C(=O)CC(c1cc(OC)c(OC)c(OC)c1)C2 (configuration not stated)
    i | 1.6
103	O=S(=O)(c1cccc2cccnc12)N1CCCc2ccccc21
    i | 0.33
104	CCCCNS(=O)(=O)c1ccc(NS(=O)(=O)c2c(C)cc(C)cc2C)cc1
    i | -1
105	COc1ccc(C(=O)c2coc3ccc(O)c(CN(C)C)c23)cc1
    i | 0.26
106	COc1ccc(C(=O)Nc2c(C)csc2C(=O)O)cc1
    i | 1
107	CSc1ccccc1NC(=O)C1=CC(c2cccs2)=NS(=O)(=O)N1C
    i | -0.75
108	Cc1cccc(-n2nc3c(c2NC(=O)c2ccco2)CSC3)c1C
    i | 0.35
109	O=C(C1=C[C@@H](C2CCCCC2)C[C@@H](OCc2ccc(CO)cc2)O1)N1CCOCC1
    i | 0.02
110	CCOc1cc(NC(=S)NCC2CCCO2)c(OCC)cc1NC(=O)c1ccccc1 (configuration not stated)
    i | -0.17
111	O=C1CSc2ccc(S(=O)(=O)NCc3ccccc3)cc2N1
    i | 0.24
112	Nc1c(C(=O)c2ccccc2)sc2nsc(SCCN3CCOCC3)c12
    i | -0.05
113	Cc1ccc(N(CC(=O)NCC2CCCO2)S(=O)(=O)c2ccc(Cl)cc2)cc1C (configuration not stated)
    i | 1.5
114	COc1ccc(Br)cc1CN1CCCC(C(=O)N2CCCCC2)C1 (configuration not stated)
    i | -0.64
115	COc1ccccc1-c1cc(C(F)(F)F)nc(N2CCOCC2)n1
    i | -2.2
116	O=C(Cc1ccc(S(=O)(=O)N2CCOCC2)s1)NCCc1ccc(F)cc1
    i | 0.2
117	COc1cccc(NC(=S)NCCCN2CCOCC2)c1
    i | 1.1
118	O=C1OC(c2ccccc2)=N/C1=C/c1cccc(OC(=O)c2cccs2)c1
    i | -1.3
119	CC(=O)c1ccc(NC(=O)CSC(=S)N2CCCC2)cc1
    i | 0.05
120	Cc1nn(CCCC(=O)NCCc2ccccc2)c(=O)c2nn(-c3ccccc3)c(C)c12
    i | -0.3

Another view of part of the listing above.
nr | KCNQ2 block | KCNQ2 block baseline | SMILES
111 | i | 0.24 | O=C1CSc2ccc(S(=O)(=O)NCc3ccccc3)cc2N1
112 | i | -0.05 | Nc1c(C(=O)c2ccccc2)sc2nsc(SCCN3CCOCC3)c12
113 | i | 1.5 | Cc1ccc(N(CC(=O)NCC2CCCO2)S(=O)(=O)c2ccc(Cl)cc2)cc1C (configuration not stated)
114 | i | -0.64 | COc1ccc(Br)cc1CN1CCCC(C(=O)N2CCCCC2)C1 (configuration not stated)
115 | i | -2.2 | COc1ccccc1-c1cc(C(F)(F)F)nc(N2CCOCC2)n1
116 | i | 0.2 | O=C(Cc1ccc(S(=O)(=O)N2CCOCC2)s1)NCCc1ccc(F)cc1
117 | i | 1.1 | COc1cccc(NC(=S)NCCCN2CCOCC2)c1
